VDR inhibitor: vitamin D3 receptor (human) inhibition | Potency, µM, for the others: max response, negative = inhibition, actives largely listed as inhibitors | P11473 | VDR-SRC2-3 peptide fluorescence polarization, 2 h | actives 0.93% (n = 400,000); active = well fitted inhibition curve with a large enough effect; inconclusive = small, poorly fitted or top-dose-only effect, or another doubt; inactive = no such curve, though single readings can be large or run the other way; also: series mostly up to about 120 µM
Target sequence (P11473 whole entry, looked up): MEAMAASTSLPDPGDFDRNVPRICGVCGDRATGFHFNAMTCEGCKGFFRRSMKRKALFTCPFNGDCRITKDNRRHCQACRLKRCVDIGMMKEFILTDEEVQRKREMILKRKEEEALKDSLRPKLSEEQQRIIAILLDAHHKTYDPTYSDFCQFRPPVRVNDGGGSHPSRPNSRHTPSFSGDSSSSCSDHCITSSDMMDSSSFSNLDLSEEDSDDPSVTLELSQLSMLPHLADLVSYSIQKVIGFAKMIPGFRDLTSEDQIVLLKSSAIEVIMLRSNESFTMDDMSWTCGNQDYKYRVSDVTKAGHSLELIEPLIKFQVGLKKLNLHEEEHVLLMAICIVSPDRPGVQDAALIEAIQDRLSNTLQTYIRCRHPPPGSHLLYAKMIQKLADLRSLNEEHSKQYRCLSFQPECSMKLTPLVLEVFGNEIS
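After 23 nl compound addition and a short centrifugation, plates sat for 2 hours at ambient temperature; polarization of fluorescence then indicated loss of VDR binding to peptide SRC2-3.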
* marks the source's active call; other numbers are inactive results; ? = inconclusive; & = joins results of further samples; [ ] = dose if it differs, or a comment. % is scaled to controls: 0 for no effect and ±100 for the full control effect; potency is read from the fitted curve at half-maximal effect. These rows are one share of the data. The share of hits here may be higher or lower than overall.

SMILES	VDR inhibitor
COc1cc(Cl)c(S(=O)(=O)N2CCN(c3c(C)cccc3C)CC2)cc1Cl	11%
Cc1ccc(NC(=O)CSc2ncc3c(n2)-c2ccccc2N(C)S3(=O)=O)c(Cl)c1	-2%
CS(=O)(=O)N(CC(=O)NC1CC2CCC1C2)c1cccc(C(F)(F)F)c1 (centres undefined)	-1%
Cc1ccc(C)c(NC(=O)CSc2nnc(-c3ccncc3)o2)c1	-22%
CN1CCN(c2nc(-c3ccc(Cl)cc3Cl)nc3ccccc23)CC1	5%
Cc1ccc(OCCn2c(Br)nc3c2c(=O)n(C)c(=O)n3C)cc1	0%
O=C(NC[C@@H](O)CO)c1c(I)c(C(=O)NC[C@@H](O)CO)c(I)c(N(CCO)C(=O)CO)c1I	6%
O=C(CN1C(=O)C(=O)c2ccccc21)c1ccccc1	-15%
CS(=O)(=O)N1CCC[C@@]2(CCN(Cc3nccs3)C2)C1	-9%
COc1cccc(-n2nnc3c(=O)n(CC(=O)OCc4ccccc4)cnc32)c1	-4%
COc1ccc(-c2noc(CNC(=O)c3ccccc3Br)n2)cc1	12%
CN(C)C(CNC(=O)Cc1cccc(C(F)(F)F)c1)c1ccco1 (centres undefined)	9%
CCN(C(=O)COC(=O)c1nc(Cl)ccc1Cl)C1CCS(=O)(=O)C1 (centres undefined)	-13%
O=C1CC(c2ccccc2)Cc2[nH]c(=O)c(-c3nc(-c4ccc(Cl)c(Cl)c4)cs3)cc21 (centres undefined)	-17%
C=CCOc1ccc(CN(C)CC(=O)Nc2ccc3c(c2)CCC3)cc1	-6%
O=C(Nc1ccc(N2CCCCC2)cc1)c1cc(S(=O)(=O)N2CCOCC2)ccc1F	-13%
CCOc1ccc(C2CC(c3cccc(C)c3)n3ncnc3N2)cc1 (centres undefined)	-7%
Cc1ccc(-c2cc(C(=O)Nc3ccc(S(=O)(=O)Nc4nccs4)cc3)c3ccccc3n2)c(C)c1	-23%
Cc1cc(C(=O)Nc2cccc3c2O[C@H](CN(C)CC2CC2)[C@@H](C)CN([C@H](C)CO)C3=O)n(C)n1	-3%
N#Cc1c(-c2ccccc2)ccn(Cc2ccccc2Cl)c1=O	1%
Cc1cc(NC(=O)c2cc(-c3ccco3)on2)no1	-1%
Cc1ccn2c(C(=O)c3ccc(Cl)cc3)cnc2c1	8%
COC(=O)c1ccc(=O)n(Cc2ccco2)c1	?
CC1=Nc2cccc3cccc(c23)N1	-10%
Cc1cccc(OCc2nnc(NC(=O)Cc3cccs3)s2)c1	-2%
COc1ccc(NC(=O)CSc2nnc(-c3cccc(O)c3)o2)cc1	6%
Cc1cc2n(n1)C(c1ccccc1Cl)Nc1ccccc1-2 (centres undefined)	7%
Cc1cccc(NCC(=O)N/N=C/c2ccc(Br)cc2)c1	-10%
COc1cccc(NC(=S)N(CCc2c(C)[nH]c3ccccc23)Cc2cccs2)c1	1%
CCCCN(C(=O)c1ccc2c(c1)S(=O)(=O)N=C1CCCCCN12)c1c(N)n(CC(C)C)c(=O)[nH]c1=O	-8%
CC(C)(C)c1nnc(NC(=O)Cc2ccc(Br)cc2)s1	?
CCS(=O)(=O)N1CCN(c2ncnc3sc(C)c(C)c23)CC1	3%
COc1ccc(C)cc1NC(=O)COC(=O)c1ccc([N+](=O)[O-])o1	1%
O=C(N1CCOCC1)N1c2ccccc2Sc2ccccc21	9%
CCCCNC(=O)NS(=O)(=O)c1ccc(C)cc1	18%&-3%&-7%&2%
CCOc1ccc(NC(=O)CSc2nccn2-c2cccc(C)c2C)cc1	5%
Cc1cc2nc(-c3ccc(Br)cc3)cc(C(F)(F)F)n2n1	42%[activator]
Cc1ccc(OCc2ccc([N+](=O)[O-])cc2)c([N+](=O)[O-])n1	2%
Cc1ccc(NC(=O)CC2OC(=O)c3ccccc32)cc1S(=O)(=O)N1CCCCCC1 (centres undefined)	2%
CC1CCCN(C(=O)CSc2ncccn2)C1 (centres undefined)	14%
CC(C)c1ccc(OCC(=O)Nc2ccc3oc(=O)ccc3c2)cc1	-10%
CC1CCC2(CC1)NC(=O)c1ccccc1O2 (centres undefined)	?
O=C(Nc1nccs1)c1ccc(-c2ccccc2Cl)o1	-15%
O=C(NCC1CCOCC1)c1ccc(OC2CCN(Cc3ccccn3)CC2)cc1	10%
Cc1ccc(NC(=O)CNc2cccc(S(=O)(=O)N3CCCC3)c2)cc1F	-13%
CCOc1ccc(-n2c(-c3ccco3)nc3c(cnn3-c3ccc(C)cc3)c2=O)cc1	17%
Nc1ccc(CCS(N)(=O)=O)cc1	20%
Cc1nn2c(=O)cc(COC(=O)c3c(F)cccc3Cl)nc2s1	11%
O=C(NCCCN1CCCC1=O)c1ccc2c(=O)n(Cc3ccco3)c(=S)[nH]c2c1	-4%
CC(C)(C)C1CCc2c(sc3nc(SCC(N)=O)nc(N)c23)C1 (centres undefined)	25%
Additional compounds follow:
SMILES	VDR inhibitor
Cc1nc([N+](=O)[O-])c(SCC(N)=O)n1Cc1ccccc1	-19%
CCOC(=O)N1CCN(c2ncnc3scc(-c4ccc(Cl)cc4)c23)CC1	-20%
CC(OC(=O)CN1C(=O)C2CCCCC2C1=O)C(=O)Nc1ncc(Cl)cc1Cl (centres undefined)	11%
CCCCn1c(N)c(N(CC)C(=O)c2ccccc2F)c(=O)[nH]c1=O	2%
COc1ccc(/C=C2\Oc3cc(OC(=O)N4CCOCC4)ccc3C2=O)c(OC)c1	6%
O=C(c1ccccc1)C1Oc2ccccc2C2CC(c3cccs3)=NN12 (centres undefined)	-9%
CSCCC(=O)N(C)CC1CCCN(CCc2cccc(C(F)(F)F)c2)C1 (centres undefined)	-28%
CN(C)CCCNC(=O)c1ccc2[nH]c3ccccc3c2c1	-19%
N=c1c2c(n(Cc3ccc(F)cc3)c3c1CCC3)CCCC2	-6%
C=CCN(C(=O)c1ccc(Cl)cc1)c1ccccc1C(=O)NCC(=O)O	18%
COc1cccc(C(=O)N2CCN(Cc3ccc4c(c3)OCO4)CC2)c1OC	5%
COC(=O)CCC(=O)COc1ccc(OC)cc1C#N	-4%
Cc1nn(C(C)C(=O)Nc2ccccc2C(F)(F)F)c(=O)c2c1sc1ccccc12 (centres undefined)	-1%
Cc1cc(C)c(S(=O)(=O)N2CCOC2CNC(=O)C(=O)NCc2ccncc2)c(C)c1 (centres undefined)	4%
Cc1cnc(CNc2cc(-c3ccccc3C(F)(F)F)ncn2)cn1	-13%
CC(C)CCNC(=O)Cn1c(=O)oc2cc(S(=O)(=O)N3CC(C)CC(C)C3)ccc21 (centres undefined)	-13%
COc1ccccc1NC(=O)CN1CCN(CC(=O)Nc2ccc(F)cc2)CC1	-5%
Cc1noc(C)c1CCC(=O)Nc1c(C(C)C)cccc1C(C)C	0%
O=C(Nc1ccccc1Cl)c1cc(S(=O)(=O)N2CCCCC2)ccc1N1CCOCC1	12%
CN(CC(=O)Nc1cccc(S(=O)(=O)NC2=NCCC2)c1)Cc1cccc(F)c1	-8%

Overlap with the part before: six compounds, then new ones.
SMILES	VDR inhibitor
Cc1cnc(CNc2cc(-c3ccccc3C(F)(F)F)ncn2)cn1	-13%
CC(C)CCNC(=O)Cn1c(=O)oc2cc(S(=O)(=O)N3CC(C)CC(C)C3)ccc21 (centres undefined)	-13%
COc1ccccc1NC(=O)CN1CCN(CC(=O)Nc2ccc(F)cc2)CC1	-5%
Cc1noc(C)c1CCC(=O)Nc1c(C(C)C)cccc1C(C)C	0%
O=C(Nc1ccccc1Cl)c1cc(S(=O)(=O)N2CCCCC2)ccc1N1CCOCC1	12%
CN(CC(=O)Nc1cccc(S(=O)(=O)NC2=NCCC2)c1)Cc1cccc(F)c1	-8%
Cc1cc(C)n2c(SCC(=O)NC3CCCCC3)nnc2n1	-5%
Cc1nc2ccccc2c(=O)n1NC(=O)c1ccc(Cl)c(Cl)c1	-10%
CN(CCCS(=O)(=O)[O-])c1ccc(/C=C/c2ccc3ccccc3[n+]2C)cc1	-12%
CC(NC(=O)c1ccc2c(c1)S(=O)(=O)N=C1CCCCCN12)c1ccc(S(N)(=O)=O)cc1 (centres undefined)	-15%
O=C(COc1ccc2c3c(c(=O)oc2c1)CCC3)N1CCCC1	-7%
CCOc1ccc(N=Nc2cc(C(C)C)ccc2O)cc1	-9%
O=S(=O)(NC(=NCc1ccccc1)c1ccccc1)c1ccc(Br)cc1	-3%
CCc1ccc(CNC(=O)c2ccc(NC(=O)N3CCCCc4ccccc43)cc2)cc1	-2%
COc1ccc(N(CC(=O)N2CCN(c3ccccc3)CC2)S(=O)(=O)c2c(C)noc2C)cc1	-18%
Cc1ccccc1Cn1c(C(C)O)nc2ccccc21 (centres undefined)	12%
Cc1ccc(CC2CC(=O)N(c3ccc(Cl)cn3)C2=O)cc1 (centres undefined)	28%
Nc1c(-c2ccsc2)cnc2ncnn12	-19%
COCCCNC(=O)CN1C(=O)c2ccccc2C1=O	-6%
O=C(Nc1ccccc1)Nc1nccs1	16%
O=C(COc1ccc(S(=O)(=O)N2CCOCC2)cc1)NCc1ccco1	2%
CC(C)OC(=O)CSc1nc2ncc(Cl)cc2[nH]1	15%
CCOC(=O)c1ccc(C(=S)N2CCCC2)cc1	-8%
CCc1c(C)nc2ncnn2c1N1CCCC(C(=O)NCc2ccc3c(c2)OCO3)C1 (centres undefined)	9%
CC(C)CN(C(=O)CSc1nnc(-c2cccs2)n1N)c1c(N)n(Cc2ccccc2)c(=O)[nH]c1=O	-15%
COc1ccccc1CC(=O)NC1CC1	-7%
CCOc1ccc(S(=O)(=O)N2CCCC(C(=O)N3CCC(C(N)=O)CC3)C2)cc1Cl (centres undefined)	-11%
CCOc1ccccc1NC(=O)NNC(=O)CCc1ccc(OC)cc1	-8%
C/C(=N\N=C(/C)c1cccc(N)c1)c1cccc(N)c1	-2%
CCCNS(=O)(=O)c1ccc(CCC(=O)NCc2ccc3c(c2)OCO3)cc1	-14%
COc1ccc(C(=O)OC(C(=O)c2ccc(C)cc2)c2ccccc2)cc1 (centres undefined)	-16%
Cc1cc(Oc2ccc(=O)n(C)n2)nc(SCCOc2ccccc2)n1	3%
COc1ccc(NC(=O)COc2cc(O)c3c(c2)OC(C)(C)CC3=O)cc1	-2%
Cc1cc(N)ccc1NC(=O)c1ccccc1	4%
Cc1c(Br)c([N+](=O)[O-])nn1CC(=O)Nc1nccs1	7%
Cc1cccc(NC2=NC3(CCCCC3)N=C(N)N2)c1	-9%
O=C(CCCCCn1c(=S)[nH]c2cc3c(cc2c1=O)OCO3)N1CCN(C2CCCCC2)CC1	5%
CCOc1ccc(Cn2c(O)cc(=O)[nH]c2=O)cc1	?
C=CCOC(=O)C1=C(C)NC(SCC(=O)N(CC)CC)=C(C#N)C1c1ccccc1 (centres undefined)	-12%
COc1cccc(NC(=O)COC(=O)CCC(=O)c2cccs2)c1	-23%
Cc1ccc(NC(=O)c2nc[nH]c2C(=O)N2CCN(c3ccccc3)CC2)cc1	-4%
CCN(C[C@H]1N[C@@](CC)(C(=O)OC)[C@H]2C(=O)N(Cc3ccccc3)C(=O)[C@@H]12)S(=O)(=O)c1ccc(OC)cc1	-13%
Nc1nc(SCc2ccccc2)ns1	-10%
COc1ccc(CCN2CC(C(=O)N3CCCCCC3)CCC2=O)cc1 (centres undefined)	-17%
Cc1ccc2[nH]c(=O)c(CN(C(=O)c3cccc([N+](=O)[O-])c3)C(C)(C)C)cc2c1	12%
O=C(Nc1ccn(CCCNCC2CCCO2)c(=O)n1)OCc1ccccc1 (centres undefined)	-3%
CCOC(=O)c1c(C)[nH]c(C)c1S(=O)(=O)N(C)CC(=O)N(C)Cc1ccccc1	15%
C=CC[C@H](CC(=O)N(CCO)Cc1ccccc1)C(=O)N[C@@H](C)COC(=O)[C@@H](CC=C)Cc1ccc(F)cc1	-9%
CCCc1cc(C(=O)N2CCCC(N3CCN(c4ccccc4F)CC3)C2)n(C)n1 (centres undefined)	-1%
CCN1C(=O)/C(=C/c2cc(C)n(C)c2C)SC1=Nc1ccc(OC)cc1	-7%
Cc1ccc(C(=O)CCC(=O)OCc2nnc(-c3ccccc3)o2)cc1	-2%
Cc1nnc2ccc(-c3cccc(NS(=O)(=O)c4ccccc4[N+](=O)[O-])c3)nn12	10%
O=S(=O)(NCCN1CCCC1)c1cccc2cccnc12	5%
COc1cccc(CN(CC2CCCO2)S(=O)(=O)c2ccc(S(=O)(=O)NCC3CCCO3)cc2)c1OC (centres undefined)	-4%
Cc1ccc(NC(=O)Cn2cnc3c(nnn3Cc3ccc(F)cc3)c2=O)cc1	-5%
COc1ccc(C(C)=O)cc1CSc1nnc(SCc2cc(C(C)=O)ccc2OC)s1	12%

Compounds listed so far that contain a furan ring, fused or not (8):
SMILES	VDR inhibitor
CN(C)C(CNC(=O)Cc1cccc(C(F)(F)F)c1)c1ccco1 (centres undefined)	9%
Cc1cc(NC(=O)c2cc(-c3ccco3)on2)no1	-1%
COC(=O)c1ccc(=O)n(Cc2ccco2)c1	?
COc1ccc(C)cc1NC(=O)COC(=O)c1ccc([N+](=O)[O-])o1	1%
O=C(Nc1nccs1)c1ccc(-c2ccccc2Cl)o1	-15%
CCOc1ccc(-n2c(-c3ccco3)nc3c(cnn3-c3ccc(C)cc3)c2=O)cc1	17%
O=C(NCCCN1CCCC1=O)c1ccc2c(=O)n(Cc3ccco3)c(=S)[nH]c2c1	-4%
O=C(COc1ccc(S(=O)(=O)N2CCOCC2)cc1)NCc1ccco1	2%

More records follow.
SMILES	VDR inhibitor
COc1cc(CC(=O)OCC(=O)Nc2ccc([N+](=O)[O-])cc2)cc(OC)c1OC	-10%
CCc1ccc(S(=O)(=O)NCc2cn3ccccc3n2)s1	-17%
Cc1cccc(Cn2c(=O)n(Cc3ccccc3)c(=O)c3sc4ccccc4c32)c1	-22%
COc1ccccc1CNC(=O)c1ccc(CN2CC(=O)N3CCCCC3C2=O)cc1 (centres undefined)	1%
CC1(C)C2CCC1(C)C(NCC(O)COc1ccc(C#N)cc1)C2 (centres undefined)	0%
NS(=O)(=O)c1ccc(CCNC(c2ccccc2)c2ccccc2)cc1	-14%

Source: PubChem (National Center for Advancing Translational Sciences (NCATS))
